Screens from PubChem BioAssay.
SARS PLpro yeast = qHTS of Yeast-based Assay for SARS-CoV PLP; S. cerevisiae expressing SARS-CoV PLpro, growth rescue; control for the full effect not named in the record; Potency, µM (top dose mostly 32.9 µM), without a hit: top-dose activity, positive = growth rescue; hit rate 0.19% among 330,000; also: 0% is about no effect; nearly all actives have a fitted effect of over 55% in size; growth read by luminescence after 48 h
Cruzain inh Det = qHTS Assay for Promiscuous and Specific Inhibitors of Cruzain (with detergent); Cruzipain (Trypanosoma cruzi), P25779; hit rate 0.43% among 200,000; Potency, µM, inactives show max response, negative = inhibition, actives largely listed as inhibitors; purified cruzain, Z-FR-AMC fluorescence, 0.01% Triton; active = well fitted curve in the direction sought with a large enough effect; inconclusive = small, poorly fitted or top-dose-only effect, or another doubt; inactive = no such curve, though single readings can be large; an effect the other way counts as inactive or inconclusive;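 also: plate controls were neutral wells for no effect and buffer without enzyme for full effect; nearly all actives have a fitted effect of over 40% in size; top concentration of the series not given in the record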
Target sequence (P25779 123-467 limits assumed): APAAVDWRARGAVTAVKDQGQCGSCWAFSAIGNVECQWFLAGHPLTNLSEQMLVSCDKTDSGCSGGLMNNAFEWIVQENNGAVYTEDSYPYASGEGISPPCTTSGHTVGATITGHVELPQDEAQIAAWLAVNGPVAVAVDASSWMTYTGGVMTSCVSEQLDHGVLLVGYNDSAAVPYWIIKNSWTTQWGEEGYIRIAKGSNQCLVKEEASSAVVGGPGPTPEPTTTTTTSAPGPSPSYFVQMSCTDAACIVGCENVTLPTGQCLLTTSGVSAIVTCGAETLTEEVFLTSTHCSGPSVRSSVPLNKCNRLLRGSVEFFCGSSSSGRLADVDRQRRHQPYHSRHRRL
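Compounds were screened in titration against cruzain (1.5 nM) with 0.01% Triton X-100 to counter colloidal aggregation. Activity was the AMC fluorescence increase over 60 s after adding 2 uM Z-FR-AMC at pH 5.5.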
Cruzain inh noDet = qHTS Assay for Promiscuous and Specific Inhibitors of Cruzain (without detergent) | purified cruzain, Z-FR-AMC fluorescence, no detergent | Potency, µM, inactives show max response, negative = inhibition, hits mostly inhibitors | AID 1476, 2009 | Cruzipain (Trypanosoma cruzi), P25779 | hit rate 2.3% among 200,000; active = well fitted curve in the direction sought with a large enough effect; inconclusive = small, poorly fitted or top-dose-only effect, or another doubt; inactive = no such curve, though single readings can be large; an effect the other way counts as inactive or inconclusive;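 also: plate controls were enzyme without inhibitor for no effect and buffer without enzyme for full effect; nearly all actives have a fitted effect of over 40% in size; top concentration of the series not given in the record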
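Purified cruzain at 1.5 nM, pre-incubated 15 min with compound at room temperature in 100 mM sodium acetate pH 5.5, 5 mM DTT, 0.00005% Triton X-100. Reaction started with 2 uM Z-FR-AMC; AMC fluorescence increase over 60 s gives rate.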
LASV entry inh = qHTS for Inhibitors of binding or entry into cells for Lassa Virus. Potency, µM (top dose mostly 37.9 µM), for the others: at the top dose activity change, negative = inhibition, usual class: inhibitors. Lassa virus pseudotype entry inhibition, cell reporter; control for the full effect not named in the record. hit rate 1.2% among 300,000; active means well fitted inhibition curve with a large enough effect; inconclusive means small, poorly fitted or top-dose-only effect, or effect the other way; inactive means flat fitted curve, though single readings scatter; tested in HEK293 cells; also: % is scaled to controls: 0 for no effect and ±100 for the full control effect; nearly all actives have a fitted effect of over 50% in size; luciferase read-out
RE007 growth inh = qHTS Assay for Inhibitors of the HIV-1 protein Vpr. S. pombe RE007 Vpr strain, BacTiter-Glo ATP luminescence, 24 h; control for the full effect not named in the record. Potency, µM (top dose mostly 92.2 µM), for the others: at the highest dose activity change, negative = less growth. hit rate 0.21% among 360,000. AID 651644, 2012; active = well fitted falling curve with a large enough effect; inconclusive = small, poorly fitted or top-dose-only effect; inactive = no such curve, though single readings can be large or run the other way;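 also: % is scaled to controls: 0 for no effect and ±100 for the full control effect; nearly all actives have a fitted effect of over 50% in size; the assay follows cell death caused by Vpr and the record does not say whether a fall means rescue or toxicity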
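Fission yeast RE007 carrying one integrated HIV-1 vpr copy, seeded at OD 0.01 in PMG+AL medium with 23 nL pinned compound. Grown 24 h at 30 degrees; viability read by BacTiter-Glo luminescence after 5 min.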
NS1 inh = qHTS Assay for Inhibitors of Influenza NS1 Protein Function | Potency, µM (doses to about 46.1 µM), for the others: top-dose activity, positive = more growth | hit rate 0.4% among 270,000 | S. cerevisiae slowed by influenza A NS1, growth recovery by OD600; also: actives are rising curves; nearly all actives have a fitted effect of over 50% in size
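In this qHTS, NS1 from influenza A is expressed in budding yeast, where it slows growth. Cells are switched from glucose to 2% galactose medium (pH 6.0, -URA), treated with compound, and growth recovery is read at OD600.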
Marburg entry inh = qHTS for inhibitors of binding or entry into cells for Marburg Virus | hit rate 1.8% among 300,000 | Potency, µM (highest dose often 37.8 µM), for inactives: at the top dose activity change, negative = inhibition, most hits filed as inhibitors | Marburg virus pseudotyped entry inhibition, cell reporter; control for the full effect not named in the record; about a third of the inactives were read at about 46 µM; active = well fitted inhibition curve with a large enough effect; inconclusive = small, poorly fitted or top-dose-only effect, or effect the other way; inactive = flat fitted curve, though single readings scatter; tested in HEK293 cells; about a fifth of its hits are not listed in these tables; also: % is scaled to controls: 0 for no effect and ±100 for the full control effect; luciferase read-out
StopGo reporter = High Throughput Screening for Foot and Mouth Disease Virus Antivirals. hit rate 1.2% among 410,000. human cells with a luciferase reporter of 2A StopGo recoding; control for the full effect not named in the record. Potency, µM (titrated, usually from 57.9 µM), without a hit: top-dose signal change, negative = less light. AID 1159524, 2015; active = well fitted falling curve with a large enough effect; inconclusive = small, poorly fitted or top-dose-only effect; inactive = no such curve, though single readings can be large or run the other way; tested in HEK293T cells; also: % is scaled to controls: 0 for no effect and ±100 for the full control effect; nearly all actives have a fitted effect of over 45% in size; luciferase light after 4 h
* marks the source's active call; other numbers are inactive results; ? = inconclusive; · = no result given; & = joins results of further samples; [ ] = dose if it differs, or a comment. Unless noted, calls follow the shape of the dose curve; as a rule, active means well fitted rising curve with a large enough effect; inconclusive means small, poorly fitted or top-dose-only effect; inactive means no such curve, though single readings can be large or run the other way. Potency is read from the fitted curve at half-maximal effect.

SMILES	SARS PLpro yeast	Cruzain inh Det	Cruzain inh noDet	LASV entry inh	RE007 growth inh	NS1 inh	Marburg entry inh	StopGo reporter
COc1cc(OC)cc(C(=O)NCC2CCCN(C(=O)c3csc(C)n3)C2)c1 (stereo not given)	0%	·	·	·	5%	4%	·	-24%
O=c1ccc(-c2ccccc2)n[nH]1	3%	1.6%&2.1%	-4%&-2%	20%	-3%	3%&3%	6%&6%&6%	·
COCCn1nnnc1CN(CCCN1CCOCC1)Cc1cc2c(C)ccc(C)c2[nH]c1=O	-3%	5.7%	5%	21%	-10%	1%	-12%	-11%
O=C(NC1CCCC1)c1ccc([N+](=O)[O-])s1	-19%	·	·	-42%	?	·	-11%[46.1 µM]	-21%
COC(=O)Cc1ccc(NC(=S)Nc2ccc(N3CCOCC3)cc2)cc1	-1%	·	·	0%[46.1 µM]	-19%	6%	2%[46.1 µM]	-5%
COc1ccccc1NS(=O)(=O)c1ccc(C)c(C(N)=O)c1	1%	0.6%	-7%	1%	17%	8%	4%	0%
O=C1CCN(CCc2ccccc2)CCN1[C@H](CO)c1ccccc1	8%	·	·	·	2%	22%	·	2%
CCOCC(=O)N1CCN(c2ccc([N+](=O)[O-])cc2)CC1	-18%	-10%	-4%	26%	0%	6%	2%	?
Cn1nc(C(F)(F)F)c(C(=O)Nc2ccc(F)cc2F)c1Cl	-3%	·	·	2%	8%	·	26%[46.1 µM]	-13%
N#CCCN(C(=O)COC(=O)C1CCN(c2ccc(C(F)(F)F)cn2)CC1)c1ccc(F)cc1	-3%	·	·	-2%[46.1 µM]	1%	·	3%	-10%
O=C(CSc1nnc(CNC(=O)c2ccc(F)cc2)o1)Nc1ccc2c(c1)OCO2	-3%	·	·	0%	-7%	0%	?	-6%
COc1ccc2[nH]c(=O)c(CN(Cc3ccccc3OC)Cc3nnnn3CC3CCCO3)cc2c1 (stereo not given)	3%	-3.5%	?	-2%	-16%	-32%	-22%	-4%
Cc1ccc(OCC(=O)NN2C(=O)c3ccccc3C2=O)cc1	0%	·	·	·	14%	-4%	·	-10%
CCOCCCn1c(SCC(=O)Nc2cccc(OC)c2)nc2ccccc2c1=O	2%	-0.7%	?	-26%[46.1 µM]	3%	-14%	·	-6%&-24%
Cc1ccccc1NC(=O)CSc1nc2c(c(-c3ccco3)c1C#N)CCCC2	-1%	-5.2%	7.9µM*	0%	10%	8%	16%	-25%
COc1ccc(C(CC(=O)O)NC(=O)COc2ccccc2OC)cc1OC (stereo not given)	5%	6.4%	2%	8%	-16%	-7%	-25%	-20%
CCOC(=O)c1cnc(-n2nc(C)cc2C)nc1-n1nc(C)cc1C	0%	3.7%	-8%	17%	7%	-3%	6%	12%
Cc1cc(Cl)ccc1NC(=O)C(=O)N/N=C/c1ccc2c(c1)OCO2	2%	·	·	7%[46.1 µM]	-2%	13%	23%[46.1 µM]	-7%
CN1CC2([N+](=O)[O-])CC=C(Oc3ccccc3)C([N+](=O)[O-])(C1)C2 (stereo not given)	·	1.7%	-12%	-8%	1%	-11%	1%	-22%
COC(=O)COc1ccc(S(=O)(=O)N2CCN(c3ccccc3F)CC2)cc1	-13%	-1.8%	?	9%	-16%	-164%	-2%	-17%
CSc1nc(N(CCO)CCO)c2sc3nc(-c4ccco4)c4c(c3c2n1)CCC4	2%	10µM*	3.2µM*	-4%	-4%	?	?	-29%
Cc1cccc(C(=O)N2CCC(c3nc(-c4ccc(S(=O)(=O)N5CCOCC5)cc4)no3)CC2)c1	6%	-4.3%	?	?	3%	10%	-8%	·
CCOc1ccc(Cn2c(SCCCCC#N)nc3c2c(=O)n(C)c(=O)n3C)cc1OCC	-2%	-4.2%	?	?	8%	-34%	?	-21%
COC(=O)c1ccc(CN2CCN(CCc3ccccc3)C(CCO)C2)cc1 (stereo not given)	1%	·	·	1%[46.1 µM]	4%	-4%	1%[46.1 µM]	-13%
O=C(O)c1ccc(N=Cc2c(O)n(Cc3ccc(F)cc3)c(=O)[nH]c2=O)cc1	0%	·	·	·	19%	3%	·	-6%
COc1ccc(CSc2nc(CSC)cc(N3CCOCC3)n2)cc1	14%	1.4%	12%	-11%	3%	-47%	4%	·
CC(C)n1c(Nc2ccccc2)nc2ccccc21	1%	3.4%	2%	?	1%	-13%	-21%	-10%
CCOc1ccc(-n2nnc3c(=O)n(C/C=C/c4ccccc4)cnc32)cc1	5%	-1.9%	-2%	·	5%	25%	·	0%
Cc1ccc(-n2c(C)cc(C(=O)OCC(=O)N(CC(C)C)C3CCS(=O)(=O)C3)c2C)cc1 (stereo not given)	10%	-3.1%	?	-25%	8%	3%	-2%&-2%	-6%
Cc1ccc(NC(=O)NC2CC(=O)N(c3ccc4c(c3)OCCO4)C2)cc1 (stereo not given)	-8%	·	·	11%	-2%	·	9%	-3%
COc1cc2c(C(=O)NCc3ccc4c(c3)OCO4)cn(CC(C)C)c(=O)c2cc1OC	3%	7.7%	?	-23%	27%	7%	?	-23%
Cc1cccc(-n2ncc(C(=O)NCc3ccccn3)c2C2CCN(C(=O)OC(C)(C)C)CC2)c1	·	-0.7%	?	-23%[46.1 µM]	·	·	·	2%
CCOc1cccc(-c2c(C(=O)N/N=C/c3sccc3C)nnn2-c2nonc2N)c1	-1%	·	·	·	1%	6%	·	5%
CCOC(=O)N1CCN(Cc2nc(N)nc(Nc3ccc(Oc4ccccc4)cc3)n2)CC1	0%	-9.2%	-10%	?	-8%	-25%	?	32µM*
O=C(COc1ccc(-c2ccccc2)cc1)N1CCN(C(=O)c2cccs2)CC1	-1%	·	·	-21%	?	8%	-9%[46.1 µM]	-26%
CC(=O)C(Cc1ccc(Cl)nc1)(Cc1ccc(Cl)nc1)C(C)=O	1%	·	·	?	-25%	-1%	?	-13%
C/C=C(\C)C(=O)NCCN1C2=NC[C@H](Cc3ccccc3)N2C[C@H]1Cc1ccc(O)cc1	1%	·	·	·	-6%	4%	·	-7%
Cc1ccc(N2CC(C(=O)Nc3ccc(S(=O)(=O)N4CCCC4)cc3)CC2=O)cc1 (stereo not given)	1%	-5.5%	5%	-1%	-2%	-21%	-1%	32%
CCOc1ccccc1NC(=O)C12CC3CC(C1)CC(c1ccc(C)cc1)(C3)C2	-15%	0.1%	1%	-21%	-5%	1%	?	-19%
Cc1ccc(-c2nnn3c2nc(NCCc2ccc(Cl)cc2)c2ccccc23)cc1	·	0.2%	0%	-14%[46.1 µM]	·	·	0%[46.1 µM]	15%
COCCn1c(SCC(=O)c2ccc(CNC(C)=O)o2)nc2ccccc2c1=O	4%	-1.3%	4%	-2%	35%	2%	6%	13%
O=c1cc(NS(=O)(=O)c2ccccc2)nc(SCc2c(Cl)cccc2Cl)[nH]1	17%	-1.1%	-18%	20%	-7%	17%	4%	-25%
CCc1cc2c(SCc3ccc(C(=O)OC)o3)ncnc2s1	-4%	·	·	-24%[46.1 µM]	-3%	-29%	-5%[46.1 µM]	-11%
Cc1ccnc2nc(NC(=O)c3ccco3)nn12	11%	·	·	·	-5%	3%	·	69%[activator]
CCOc1cccc(C2/C(=C(/O)c3ccc4c(c3)CC(C)O4)C(=O)C(=O)N2CCCn2ccnc2)c1 (stereo not given)	2%	·	·	·	-5%	-11%	·	-5%
O=C(c1ccc(-c2cccc(Cl)c2Cl)o1)N1CCOCC1	-1%	·	·	?	-23%	-5%	?	14%
C[C@H](NC(=O)[C@@H]1Cc2ccccc2CN1)C(=O)NCC1CCCO1 (stereo not given in full)	3%	·	·	·	2%	3%	·	17%
O=S1(=O)C=C(Oc2ccc3ccccc3c2)c2ccccc21	-11%	-2.2%	-8%	?	-16%	-7%	?	0%
CN(C)c1ccc(/C=N/NC(=O)C(O)c2ccc(Br)cc2)cc1 (stereo not given)	0%	·	·	·	18%	2%	·	54%[activator]
COc1ccc(-c2nc(CS(=O)CC(=O)NC3CCCC3)c(C)o2)cc1OC (stereo not given)	4%	·	·	·	-10%	26%	·	6%
O=C1C=C(c2ccccc2)OC(=O)C1C(=O)c1ccccc1 (stereo not given)	-2%&-28%	-4.8%	-1%	-1%	14%	-38%&-9%	5%&5%	·
CC(=O)Nc1ccc(SCc2ncc(-c3ccccc3)o2)cc1	-3%	·	·	-26%[46.1 µM]	-14%	-20%	?	16%
COc1ccc2ccccc2c1/C=N/NC(=O)c1ccc(C)nc1	-3%	·	·	·	-9%	-9%	·	23%
O=C(NCc1ccco1)c1nc(-c2ccccc2)n(-c2ccccc2)n1	1%	-1.5%	-20%	0%	9%	-51%	-13%	-19%
COc1ccc(CC(=O)Nc2cccc(C(=O)O)c2C)cc1	4%	7.1%	-9%	?	7%	?	?	54%[activator]
COc1ccc(CCNC(=O)c2cccnc2SC)cc1	-3%	·	·	?	-3%	·	1%[46.1 µM]	11%
COc1ccc(CCN=Cc2ccccc2O)cc1OC	0%	·	·	9%	21%	-1%	1%[14.2 µM]	-11%
O=C(NCc1ccco1)C(=O)c1c[nH]c2ccccc12	-2%	·	·	·	-7%	-10%	·	56%[activator]
O=C(COc1ccccc1)N1CCN(S(=O)(=O)c2cccc([N+](=O)[O-])c2)CC1	1%	·	·	-2%	-6%	·	5%[46.1 µM]	8%
COc1ccc(-c2cc(=O)oc3cc(OC(C)C(=O)NC(Cc4c[nH]c5ccc(O)cc45)C(=O)O)ccc23)cc1 (stereo not given)	-3%	·	·	·	3%	24%	·	-6%
Cc1cc(C)n(-c2ccc(Cl)c(C(=O)Nc3cc(C(F)(F)F)ccc3Cl)n2)n1	21%	-5.2%	9%	0%	-3%	8%	5%	-23%
Cc1noc(NS(=O)(=O)c2ccc(NC(=O)COc3ccccc3)cc2)c1C	-2%	1.8%	-8%	-13%[14.3 µM]	-3%	·	0%&0%	-22%
